Screening results deposited in PubChem by Johns Hopkins Ion Channel Center.
KCNQ2 inh – KCNQ2 channel blockers in CHO-K1 cells – cell-based, FluxOR thallium flux, B-score, primary screen (AID 2156). 20 min; stronger effect = lower value; only compounds with negative scores are shown here; some inactives read as strong as hits. B-score at 10 µM. 310,000 compounds, 1.1% hits;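 active means fluorescence ratio B-score at most minus 3 library SDs, with starting brightness B-score within 2 library SDs, cut at about -5.5 in these data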
Target sequence (O88943 whole entry, looked up): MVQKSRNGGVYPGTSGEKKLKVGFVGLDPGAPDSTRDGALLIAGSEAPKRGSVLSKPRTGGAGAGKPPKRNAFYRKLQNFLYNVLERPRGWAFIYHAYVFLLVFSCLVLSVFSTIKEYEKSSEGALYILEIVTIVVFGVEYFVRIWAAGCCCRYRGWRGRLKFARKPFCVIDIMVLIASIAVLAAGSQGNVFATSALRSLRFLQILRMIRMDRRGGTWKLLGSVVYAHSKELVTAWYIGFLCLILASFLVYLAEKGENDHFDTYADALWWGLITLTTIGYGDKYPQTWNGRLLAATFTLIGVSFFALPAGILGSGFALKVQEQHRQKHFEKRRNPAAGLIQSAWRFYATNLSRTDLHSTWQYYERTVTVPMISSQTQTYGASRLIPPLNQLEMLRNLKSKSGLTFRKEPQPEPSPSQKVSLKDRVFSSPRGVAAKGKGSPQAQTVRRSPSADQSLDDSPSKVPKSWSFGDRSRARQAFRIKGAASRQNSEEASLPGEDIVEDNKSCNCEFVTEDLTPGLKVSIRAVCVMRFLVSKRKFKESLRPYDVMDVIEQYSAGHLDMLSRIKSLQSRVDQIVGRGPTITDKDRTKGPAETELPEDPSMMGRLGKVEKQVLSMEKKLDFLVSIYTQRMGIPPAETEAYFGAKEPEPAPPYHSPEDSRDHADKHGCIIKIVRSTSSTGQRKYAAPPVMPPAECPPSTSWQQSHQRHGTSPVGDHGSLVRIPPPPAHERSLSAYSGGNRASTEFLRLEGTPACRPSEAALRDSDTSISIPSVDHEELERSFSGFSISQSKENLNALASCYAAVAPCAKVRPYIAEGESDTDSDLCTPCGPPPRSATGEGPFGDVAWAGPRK
KCNQ2 inh baseline – further read-out of KCNQ2 inh, marked with its call; B-score; measured here: initial fluorescence intensity artifact check;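 brightness before thallium and not channel activity; 0 = typical well and far values either way flag optical interference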
* hit, by the source's call; i = inactive. Some of the compounds tested, so the mix of outcomes need not match the whole.

Second line of a record: KCNQ2 inh | KCNQ2 inh baseline
- CCc1nnc(NS(=O)(=O)c2ccc(NC(=O)/C=C/c3ccc(F)cc3)cc2)s1
    i | -1.6
- O=C(c1ccccc1)N1N=C(c2ccccc2)CC1(O)C(F)(F)F (stereo not drawn)
    i | -0.05
- O=C(CCCCCn1c(=S)[nH]c2ccc(N3CCOCC3)cc2c1=O)NCc1cccc(Cl)c1
    i | -1.2
- O=C(CCCN1C(=O)/C(=C\c2ccccc2)SC1=S)Nc1ccc(O)cc1C(=O)O
    i | 0.97
- O=C(CCSc1ccccc1)NCCSCc1ccco1
    i | 0.65
- N#CC1(C#N)C2=C(CCCC2)NC(c2ccccc2)C1(C#N)C#N (stereo not drawn)
    i | 0.56
- COc1ccccc1N1CCN(C(=O)c2cccs2)CC1
    i | -1.6
- CCN(CC)C(=O)/C(=C/c1ccc2c(c1)OCO2)NC(=O)c1ccc(Br)cc1
    -5.9* | -0.87*
- COc1ccc(CCNC(=O)C(=O)Nc2ccc3c(c2)OCO3)cc1OC
    i | -0.29
- CC(C)(C)c1cnnn1-c1ccc(/C=N/Nc2ccc([N+](=O)[O-])cc2)cc1
    i | 0.08

Continuation:
Second line of a record: KCNQ2 inh | KCNQ2 inh baseline
- COc1ccc(-c2nc3ccccc3n2OCC(=O)O)cc1
    i | 1.1
- CS(=O)(=O)NCC(c1cccnc1)N1CCN(c2ccc(F)cc2)CC1 (stereo not drawn)
    i | 0.01
- COc1ccc2nc(/C(C#N)=C\c3ccc(C(=O)O)cc3)[nH]c2c1
    i | 2.4
- CN(C)C(=O)c1cc(S(=O)(=O)N(C)C)c(Cl)cc1N1CCCC1
    i | 1.7
- Cc1cc(C)cc(OCC(=O)OC(C)C(=O)Nc2ccc(Cl)cn2)c1 (stereo not drawn)
    i | -0.02
- CCc1ccc2c(CN3CCN(S(=O)(=O)c4cccs4)CC3)cc(=O)oc2c1
    i | 0.9
- CCSC1=C(C#N)C(c2cccc(OC)c2)CC(=O)N1 (stereo not drawn)
    i | 0.7
- Cc1ccc(CNCCCSc2nc(C)cc(C)n2)cc1
    i | 1.4
- Clc1ccccc1CSc1nnc(-c2ccco2)c(-c2ccco2)n1
    -9.1* | -1.1*
- CC(=O)CC(c1ccccc1)S(=O)(=O)c1ccc(C)cc1 (stereo not drawn)
    i | 1.8

The results go on:
Second line of a record: KCNQ2 inh | KCNQ2 inh baseline
- Clc1cccc2c3c([nH]c12)CCNC3
    i | -0.03
- CCNC(=S)N1C2CCC1CC(NC(=O)Nc1ccc(C(=O)OCC)cc1)C2 (stereo not drawn)
    i | 0.21
- CC(C)C[C@H](NC(=O)N1CC(=O)Nc2ccccc21)C(=O)N1CCC[C@H]1C(=O)O
    i | 0.97
- N#C/C(=C\c1ccc(O)c(O)c1)C(=O)N1CCCC1
    i | -1.3
- CCOc1ccc(CNC(=S)N/N=C/c2ccc(OC)c(OC)c2)cc1
    i | 0.54
- Cc1noc(/C=C/N(C)C)c1S(=O)(=O)N1CCCC(C(=O)N2CCCCC2)C1 (stereo not drawn)
    i | -0.04
- O=C(COC(=O)C1CC2C=CC1C2)Nc1ccccc1F (stereo not drawn)
    i | -0.01
- O=C(CSC1=NCCN1)Nc1ccccc1[N+](=O)[O-]
    i | 0.25
- COc1ccc(N(C)C(=O)C2CCCN2S(=O)(=O)c2cccc3nsnc23)cc1 (stereo not drawn)
    i | 1.6
- Cc1cc(C)c[n+](C2=C([O-])c3ccccc3C(=O)/C2=N\S(=O)(=O)c2cccs2)c1
    i | 1.1

Later entries:
Second line of a record: KCNQ2 inh | KCNQ2 inh baseline
- O=S(=O)(NCc1ccccn1)c1cccc2nsnc12
    i | 1.4
- N#CCC(=O)Nc1ccc(C(=O)OCC(=O)N(Cc2ccccc2)C2CCS(=O)(=O)C2)cc1 (stereo not drawn)
    i | 2
- COc1ccc(S(=O)(=O)N2CCN(C/C=C/c3ccccc3)CC2)cc1F
    i | -0.46
- CC(=O)c1ccc(OCc2cc(C(=O)N(C)C(C)c3ccon3)no2)cc1 (stereo not drawn)
    i | -0.64
- Cc1cc(=O)oc2ccc(OCC(=O)NCc3ccco3)cc12
    i | 1.7
- O=C(NCCc1cccs1)C1CC(c2ccccc2[N+](=O)[O-])=NO1 (stereo not drawn)
    i | -1.1
- O=C(O)CNC(=O)c1ccc(NC(=O)/C(=C/c2ccccc2)NC(=O)c2ccco2)cc1
    i | 0.7
- C=CCN(C(=O)CN1CCCCC1)c1nc(-c2ccccc2)cs1
    i | -1.6
- CCOC(=O)C1CCN(C(=O)Nc2ccc3c(c2)nc(C)n3C)CC1
    i | -0.83
- Cc1nc(C)c(-c2csc(Nc3cccc(O)c3)n2)s1
    i | -1.3

Going on with the list:
Second line of a record: KCNQ2 inh | KCNQ2 inh baseline
- CCOc1ccc(NS(=O)(=O)c2ccc(OC)c(NC(=O)c3ccc4c(c3)OCCO4)c2)cc1
    i | 2
- C=CCN1CCN(C(c2ccc(Cl)cc2)c2nnnn2CCc2ccc(OC)c(OC)c2)CC1 (stereo not drawn)
    i | 2
- Nc1c(C(=O)Nc2ccccc2)sc2nc(-c3ccco3)ccc12
    i | 0.39
- CCOC(=O)c1ccc(Oc2cc(C)nc(SC)n2)cc1
    i | 1.9
- COc1cc(OC)cc(C(=O)NCC2CCCN(Cc3cccc(C(C)=O)c3)C2)c1 (stereo not drawn)
    i | 2.4
- O=c1cc(CSc2ccccn2)[nH]c(=O)[nH]1
    i | -1.4
- O=C(NCCc1c[nH]c2ccccc12)c1cc2ccccc2oc1=O
    i | 0.85
- Cc1cc(=O)oc2cc(OCC(=O)NCCc3nc4ccccc4[nH]3)ccc12
    i | 0.92
- CC(C)(C)N(C(=O)Cn1nnc(-c2ccc(F)cc2)n1)C(C(=O)NC1CCCC1)c1ccncc1 (stereo not drawn)
    i | -0.18
- CCc1cc(=O)oc2cc(C)cc(OC(C)C(=O)NCCCN3CCCC3=O)c12 (stereo not drawn)
    i | 0.18

(list continues)
Second line of a record: KCNQ2 inh | KCNQ2 inh baseline
- O=C(NCC(O)c1ccc2ccccc2c1)c1c(F)cccc1F (stereo not drawn)
    i | -2.1
- CCOC(=O)CSc1nnc(CNC(=O)c2ccc(OC)c(OC)c2)n1C
    i | 0.38
- COc1ccc(C)cc1S(=O)(=O)N1CCN(C(=O)c2ncoc2-c2ccc(F)cc2)CC1
    i | 0.86
- CC(=O)N1CC=C2C(C#N)=C(N)C(C#N)(C#N)C(CCc3ccccc3)C2C1 (stereo not drawn)
    i | 1.1
- O=C(CSc1nnc(-c2ccccn2)o1)Nc1ccccc1F
    i | 0.37
- CCN1C(=O)[C@H]2[C@@H](c3ccc(C)cc3)N3C(=O)N(c4cccc(F)c4)C(=O)[C@@]3(Cc3ccc(Cl)cc3)[C@H]2C1=O
    i | -2.2
- COc1ccc(C2=NN(CCC(=O)NC3CCCCCC3)C(=O)CC2)cc1
    i | 2
- COCCCNc1ccnc2c(Cl)cccc12
    i | -1.1
- O=C1c2cccc3cccc(c23)C(=O)N1c1cccc(O)c1
    i | -1.6
- COc1cc(OC)c2c(-c3ccccc3)cc(=O)oc2c1C(CC(=O)N1CCOCC1)c1ccc2c(c1)OCO2 (stereo not drawn)
    i | -1.2

Next part:
Second line of a record: KCNQ2 inh | KCNQ2 inh baseline
- O=C(CCSc1nc(-c2ccco2)cc(C(F)(F)F)n1)N1CCN(c2ccccn2)CC1
    i | 3.2
- COc1ccc(-n2nnnc2SCC(=O)Nc2ccccc2)cc1
    i | -0.51
- COc1ccc(N2CCN(C(=O)CSc3nc4[nH]ncc4c(=O)n3-c3ccc(Br)cc3)CC2)cc1
    i | -5.1
- CC1(C)CC[C@]2(CO)[C@@H](O)C[C@]3(C)C(=CCC4[C@@]5(C)CC[C@H](O)C(C)(C)C5CC[C@]43C)[C@@H]2C1 (stereo partly drawn)
    i | -1.2
- CNC(=S)SCCOc1ccccc1C
    i | 0.04
- FC(F)(F)c1ccc(CN2C[C@@H]3C(c4ccc(Cl)nc4)C4(c5ccccc5)CC3(C4)[C@H]2c2ccccc2)cc1 (stereo partly drawn)
    i | -0.45
- Cc1ccc(NC(=S)Nc2cccc3ccccc23)cc1
    i | 1.2
- CSc1ncccc1C(=O)NC1CCCCCCC1
    i | -0.01
- Cc1scc(C(=O)NNC(=S)NCC2CCCO2)c1-c1ccccc1 (stereo not drawn)
    i | -0.54
- CCc1nc(N2CCN(C(=S)NCCCOC)CC2)c2c3c(sc2n1)CCCC3
    i | 0.41

Six records drawn at random from the list so far:
Second line of a record: KCNQ2 inh | KCNQ2 inh baseline
- O=C(CCSc1nc(-c2ccco2)cc(C(F)(F)F)n1)N1CCN(c2ccccn2)CC1
    i | 3.2
- CC1(C)CC[C@]2(CO)[C@@H](O)C[C@]3(C)C(=CCC4[C@@]5(C)CC[C@H](O)C(C)(C)C5CC[C@]43C)[C@@H]2C1 (stereo partly drawn)
    i | -1.2
- COc1ccc(N2CCN(C(=O)CSc3nc4[nH]ncc4c(=O)n3-c3ccc(Br)cc3)CC2)cc1
    i | -5.1
- CCc1nc(N2CCN(C(=S)NCCCOC)CC2)c2c3c(sc2n1)CCCC3
    i | 0.41
- Cc1scc(C(=O)NNC(=S)NCC2CCCO2)c1-c1ccccc1 (stereo not drawn)
    i | -0.54
- CSc1ncccc1C(=O)NC1CCCCCCC1
    i | -0.01

Carrying on.
Second line of a record: KCNQ2 inh | KCNQ2 inh baseline
- Cc1ccccc1C(=O)Oc1ccc(Cl)cc1C(=S)N1CCOCC1
    i | -0.1
- Cc1ccc2cc(CN(Cc3ccco3)C(=O)NC3CCCCC3)c(=O)[nH]c2c1C
    i | -1
- Cc1ccccc1OCC(=O)OCC(=O)Nc1cc(S(C)(=O)=O)ccc1Cl
    i | -1.3
- CC(=O)c1cccc(NC(=O)Nc2cc3sccc3n2C)c1
    i | 1.3
- CC(C)(C)Cc1nnc(NC(=O)c2ccc3c(c2)OCO3)s1
    i | -1.1
- O=C(N/N=C/c1ccc(Cl)c([N+](=O)[O-])c1)c1cc(-c2ccccc2)nc2ccccc12
    i | 0.17
- Cc1ccc(S(=O)(=O)CCC(=O)OC(C)C(=O)c2c(C)[nH]c3ccccc23)cc1 (stereo not drawn)
    i | 0.6
- C=C(C)c1cccc(C(C)(C)NC(=O)N2CCCC(C(N)=O)C2)c1 (stereo not drawn)
    i | 1.1
- CC12CC3(C)CC(C)(C1)CC(C(=O)NC1=NCCS1)(C2)C3
    i | 2.3
- COc1ccc(NC(=O)C(=O)NCCC2CCCCN2S(=O)(=O)c2ccc(F)cc2)cc1 (stereo not drawn)
    i | 0.02

The list continues.
Second line of a record: KCNQ2 inh | KCNQ2 inh baseline
- CC(C)Nc1nc(Cl)nc(N(C#N)CN2C(=O)c3ccccc3C2=O)n1
    i | 1.6
- c1ccc2c(c1)nc1sccn12
    i | -0.41
- O=C(NCCC1CCCCN1S(=O)(=O)c1ccccc1)C(=O)NC1CC1 (stereo not drawn)
    i | -1.1
- COc1ccc(-n2c(-c3ccc(Br)cc3)c[n+]3c2CCc2ccccc2-3)cc1
    i | -0.37
- CCCC(=O)NC(=S)Nc1cc(-c2nc3ncccc3o2)ccc1C
    i | 0.15
- C/C(Cl)=C\Cn1c(O)c(N=NC(N)=S)c2ccccc21
    i | 1.1
- CCOc1cc(N2CCOCC2)c(OCC)cc1NC(=O)COC(=O)c1cc(C)cc(C)c1
    i | 3.7
- O=C(NCCc1nnc2ccc(SCC(=O)N3CCCC3)nn12)c1ccc(F)cc1
    i | -0.27
- c1ccc(-c2ccc3sccc3n2)cc1
    i | -0.45
- C=CCNc1ncnc2c1cnn2-c1ccc(C)cc1C
    i | -0.27

More records follow:
Second line of a record: KCNQ2 inh | KCNQ2 inh baseline
- COc1ccc(CCNS(=O)(=O)c2cc3c4c(c2)CC(=O)N4CCC3)cc1
    i | -0.94
- Cc1nn(C)cc1C(=O)c1ccccc1
    i | 1.4
- O=C(c1cccs1)N1CCCC(c2ccccc2)C1 (stereo not drawn)
    i | -0.07
- O=C(CS(=O)(=O)c1cn(Cc2ccc(Cl)cc2)c2ccccc12)N1CCOCC1
    i | -0.72
- Cc1nc(SCc2ccc(C#N)cc2)n[nH]1
    i | -1.7
- O=C(Nc1ccc2ccccc2n1)c1ccc(Cl)cc1
    i | -0.04
- COc1cc(C(=O)N2CCCc3ccccc32)c([N+](=O)[O-])cc1OC
    i | 0.65
- COC(=O)c1cc(OC)nc2c1c(=O)n(C)c(=O)n2C
    i | 0.95
- CC(=O)Nc1ccc(S(=O)(=O)NC2CC(=O)N(c3cccc(F)c3)C2)cc1 (stereo not drawn)
    i | 1.1
- O=C(COc1ncnc2ccccc12)NCC1CCCO1 (stereo not drawn)
    i | 0.17

(continued)
Second line of a record: KCNQ2 inh | KCNQ2 inh baseline
- O=C1CSC(=S)N1N1C(=O)c2cccc([N+](=O)[O-])c2C1=O
    i | -0.15
- Cc1ccc(P(=O)(CO)c2ccc(C)cc2)cc1
    i | -0.75
- CC(=O)NC12CC3CC(C1)CC(C(=O)N1CCN(S(=O)(=O)c4ccc(Cl)s4)CC1)(C3)C2
    i | -0.02
- CCCCCCCCNC(=O)/C(C#N)=C/c1ccccc1[N+](=O)[O-]
    i | 1.9
- CCCc1n[nH]c(=O)c2c1nnn2Cc1ccccc1
    i | 1.8
- CC(=O)Nc1ccc(/C=C2\Sc3ccccc3C2=O)cc1
    i | 0.43
- C=C1SC(=Nc2c(C)cccc2Cl)N(C(=O)c2sc3ccccc3c2Cl)C12CCCCC2
    i | -0.32
- COCCCN1C(=O)C(=O)/C(=C(/O)c2ccc(OC(C)C)cc2)C1c1ccncc1 (stereo not drawn)
    i | 0.53
- CCOC(=O)N1CCN(S(=O)(=O)c2cc(C)c(C)cc2C)CC1
    i | -0.21
- O=C1OCc2cccc([N+](=O)[O-])c21
    i | 0.45

The results go on:
Second line of a record: KCNQ2 inh | KCNQ2 inh baseline
- NC(=O)CSc1oc(-c2ccc(F)cc2)nc1S(=O)(=O)c1ccccc1
    i | 0.28
- Cc1ccc(C)c(OCC(=O)NCCNC(=O)COc2cc(C)ccc2C)c1
    i | 2.3
- Cc1cccc(C(=O)Nc2ccccc2C(=O)NCc2ccco2)c1
    i | 0.51
- Cc1cc2nc(N)sc2cc1C
    i | -1
- CN1CCc2c(sc(NC(=O)Cc3ccccc3)c2C#N)C1
    i | -0.51
